From PubChem BioAssay
CBX7 inh – CBX7 inhibition, primary AlphaScreen. O95931. AlphaScreen His6-CBX7 / biotin-H3K27me3 peptide binding; active compounds read low. normalised signal (fraction of DMSO) (no concentration beside the values). hit rate 1.1% among 66,000; in the data active means normalised signal below about 0.5;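 further: 100 nL library stock added to about 20 µL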
Target sequence (O95931 whole entry, looked up): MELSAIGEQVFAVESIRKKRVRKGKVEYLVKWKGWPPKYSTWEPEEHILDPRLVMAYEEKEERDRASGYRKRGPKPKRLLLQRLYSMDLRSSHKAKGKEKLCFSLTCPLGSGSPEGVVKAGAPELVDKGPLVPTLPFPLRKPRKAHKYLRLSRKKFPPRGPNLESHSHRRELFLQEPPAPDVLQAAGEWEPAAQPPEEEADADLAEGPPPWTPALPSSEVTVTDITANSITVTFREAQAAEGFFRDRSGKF
CBX7 inh z-score – further read-out of CBX7 inh, marked with its call; z-score; measured here: z-score of CBX7 signal; some inactives read as strong as hits; reference of the scale not given here;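 same signal on another scale; lower means less binding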
Starred values were filed as active, the others as inactive.

entry	canonical_smiles	CBX7 inh z-score	CBX7 inh
1	O=C(NCCc1ccccc1)c1ccc2c(c1)N(Cc1ccc(F)cc1)C(=O)CS2	-1.3	0.87
2	CCC(=O)N1CCc2cc(Br)cc(S(=O)(=O)NCCCN3CCC(C)CC3)c21	-0.53	0.99
3	COc1ccc(C2=NN(CCC(=O)NC3CCCC(C)C3C)C(=O)CC2)cc1 (configuration not stated)	-0.14	0.99
4	CCCCC(=O)Nc1nc2ccc(S(C)(=O)=O)cc2s1	-1	0.97
5	CCN1CCN(c2cc(C)c3cc(NC(=O)c4cccc(C(F)(F)F)c4)ccc3n2)CC1	0.53	1.1
6	Cc1ccc(S(=O)(=O)C2(C(=O)N3CC=C(c4ccccc4)CC3)CC2)cc1	-6.1	0.87
7	Cc1ccc(S(=O)(=O)N(CC(O)CN2C(=O)NC(C)(C)C2=O)c2ccccc2)cc1 (configuration not stated)	-2.1	0.87
8	O=C(NC1CCCCCCC1)c1ccc2c(c1)N(Cc1ccccc1Cl)C(=O)CS2	0.19	1
9	C=CCNC(=O)CN1C(=O)C(CC)Oc2ccc(Cl)cc21 (configuration not stated)	0.62	1.1
10	Cc1cc2c(=O)n(CC(=O)Nc3ccc(F)cc3F)cnc2s1	1.6	1
11	CCCCNC(=O)Cn1nc(-c2ccc(Cl)cc2)ccc1=O	0.56	1
12	CCOC(=O)c1[nH]c(=O)[nH]c1CNc1ccccc1C#N	-1.1	0.95
13	Cn1c(SCC(=O)Nc2ccccc2C(F)(F)F)nnc1-c1c[nH]c2ccccc12	-0.17	0.99
14	COc1ccc2c(C)nc(NC(N)=NS(=O)(=O)c3ccc(C)cc3)nc2c1	-1	0.92
15	CC(C)CNC(=O)c1cc(-c2ccc(Br)cc2)on1	2.2	1.1
16	CC1CCCCN1CCCNC(=O)CN1N=C(c2ccccc2)CCC1=O (configuration not stated)	1.1	1.1
17	Cc1cccc(-c2noc(CN(C(=O)c3ccc(C(C)(C)C)cc3)C(C)C)n2)c1	-0.88	0.91
18	COc1ccc(-c2cc3nc(C)c(CCC(=O)NCCc4cccc(C)c4)c(C)n3n2)c(OC)c1	0.11	1
19	CCCOc1cccc(C(=O)Nc2cc(-c3nc4ccccc4[nH]3)ccc2C)c1	-0.19	0.83
20	CCOc1ccccc1NS(=O)(=O)c1c(C)noc1C	2.2	1.1
21	COc1ccccc1-c1cc2nc(C)c(CCC(=O)NCc3cccnc3)c(C)n2n1	1.9	1
22	CN(CC(=O)N1CCN(c2cccc(Cl)c2)CC1)S(=O)(=O)c1cnc[nH]1	0.55	1.1
23	Cc1ccc2c(c1)NC(=O)C(CC(=O)NCCCN1CCN(c3cc(Cl)ccc3C)CC1)O2 (configuration not stated)	-0.3	0.99
24	Cc1ccc(C(=O)Nc2c(C(=O)NCc3ccco3)cnn2-c2ccccc2)cc1	-1.2	0.93
25	COc1ccccc1C1(C)CCc2oc3ccc(Br)cc3c2-c2oc(C)cc21 (configuration not stated)	0.67	1.1
26	O=C(NC1CCCCC1)c1ccc2c(c1)N(Cc1ccccc1)C(=O)CS2	-0.68	0.83
27	O=C(Nc1nnc(Cc2ccc(F)cc2)s1)c1ccc(Cl)cc1Cl	-0.12	1
28	CCCN(CCC)CCCNC(=O)c1cc(Nc2ccc(OC)cc2OC)nc2ccccc12	-4.3	0.78
29	O=C(CN1CCN(Cc2ccc(F)cc2Cl)C1=O)NCCN1CCOCC1	-2.3	0.84
30	CCOc1ccc2c(c1)c(=O)c(S(=O)(=O)c1ccccc1)cn2CC(=O)Nc1ccccc1	0.4	1

(list continues)
entry	canonical_smiles	CBX7 inh z-score	CBX7 inh
31	Cc1cccc(C)c1Nc1c(-c2ccsc2)nc2ccc(Br)cn12	-2.2	0.9
32	CC(C)Oc1ccc(C(=O)NCC2(c3ccccc3)CCOCC2)cc1	1.9	1.2
33	Cc1cc(N2CCN(C)CC2)nc2ccc(NC(=O)CCC(=O)NCc3ccccn3)cc12	0.87	1.1
34	COc1ccc(NC(=O)Cn2c(C)cc3ccccc3c2=O)cc1Cl	0.12	1
35	CCOC(=O)c1c(C)n(-c2ccccc2)c2cc(Br)c(O)c(CN3CCCCC3)c12	-4.3	0.83
36	CCOC(=O)N1CCC(c2cc(=O)n3[nH]ccc3n2)CC1	0.79	1
37	Clc1ccc2nc(-c3cccs3)c(NC3CCCCC3)n2c1	3.5	1.3
38	O=C(c1ccc(Cn2c(=O)[nH]c3ccccc3c2=O)cc1)N1CCN(c2ncccn2)CC1	-0.2	0.93
39	COc1ccc(OC)c2[nH]c(=O)c(CCNC(=O)c3cc(C)cc(C)c3)cc12	-0.43	0.99
40	COc1ccc(CCNC(=O)[C@H](Cc2ccccc2)N2Cc3ccccc3C2=O)cc1OC	-0.18	0.99
41	CCCn1cnc2cc(NCc3ccc(OCC)cc3)ccc21	-16*	0.45*
42	CCc1ccc(-c2nc(SCC(=O)NCCCOC)c(-c3ccc(C)cc3)[nH]2)cc1	-1.6	0.91
43	Cc1cc(C(=O)Nc2cccc(Cl)c2C)no1	1.2	1.1
44	CCCCOc1ccc(C(=O)NCCc2c[nH]c3ccccc23)cc1	-3.9	0.91
45	COc1ccc(CCNC(=O)[C@@H](c2ccccc2)N2Cc3ccccc3C2=O)cc1OC	1.1	1
46	COCCCNC(=O)c1ccc2c(=O)n(CCc3ccccc3)c(=O)[nH]c2c1	-0.52	0.98
47	CC(O)c1nc2ccccc2n1Cc1ccc(Cl)cc1 (configuration not stated)	1.4	1
48	O=C(NCCCN1CCOCC1)c1ccc2c(c1)ncn2C1CCCCC1	0.2	1
49	CCOC(=O)C(C)Sc1nnc(Cc2cc(=O)[nH]c(=O)[nH]2)n1-c1cccc(OC)c1 (configuration not stated)	0.46	1.2
50	Cc1ccccc1OCC(=O)NCc1ccncc1	1.4	1
51	CCN1CCN(C(=O)CN2C(=O)CC(C)(C)S(=O)(=O)c3ccccc32)CC1	-0.058	1
52	CCOC(=O)c1oc2ccccc2c1NC(=O)c1cc(C)cc(C)c1	2.7	1.1
53	O=C(c1ccc2c(=O)n3c(nc2c1)CCCCC3)N1CCCC1	0.88	1
54	Cc1ccccc1Cn1nc(C)c(NC(=O)c2cc(-c3cccs3)on2)c1C	-1.8	0.82
55	CC(=O)N1CCc2cc(S(=O)(=O)NCCC(=O)Nc3ccc(OC(F)(F)F)cc3)ccc21	1.5	1
56	c1ccc(Cn2c3c(c4ccccc42)CCOc2ccccc2-3)cc1	3.1	1.1
57	CCOc1ccc(C(=O)NCCc2cc3ccc(C)cc3[nH]c2=O)cc1	0.28	1
58	COc1cc2c(cc1OC)C1C(C(=O)NCc3ccccn3)c3ccccc3C(=O)N1CC2 (configuration not stated)	0.44	1
59	CCN(CC)c1cc(C)c2cc(NC(=O)c3ccc(OC)c(OC)c3)ccc2n1	-0.008	1
60	O=C(c1ccccc1)c1cnc(Nc2nc3ccccc3o2)nc1-c1ccccc1	-3.5	0.82

Compound profiles (already shown).
COc1ccc(NC(=O)Cn2c(C)cc3ccccc3c2=O)cc1Cl as listed: CBX7 inh z-score = 0.12; CBX7 inh = 1
CCOC(=O)C(C)Sc1nnc(Cc2cc(=O)[nH]c(=O)[nH]2)n1-c1cccc(OC)c1 (configuration not stated) as listed: CBX7 inh z-score = 0.46; CBX7 inh = 1.2

(listing goes on)
entry	canonical_smiles	CBX7 inh z-score	CBX7 inh
61	Cc1nc2cc(-c3ccc(Cl)cc3)nn2c(C)c1CCC(=O)NC(C)c1ccccc1 (configuration not stated)	3	1.2
62	COc1ccc(NC(=O)Cn2ncc3c2-c2cc(C)ccc2OC3)cc1Cl	-1.3	0.95
63	O=C(Nc1ccc(F)cc1F)c1cc2c(s1)-c1ccccc1OC2	13	1.5
64	Cc1oc(-c2cccc(Cl)c2)nc1CS(=O)(=O)CC(=O)NC(C)CCc1ccccc1 (configuration not stated)	0.76	1
65	Cc1ccc(C)c(NC(=O)CN(C)S(=O)(=O)c2ccc3c(c2)n(C)c(=O)c(=O)n3C)c1	1.1	1.1
66	O=C(CCCOc1ccc(Cl)cc1Cl)Nc1ncccn1	-0.48	0.98
67	COC(=O)c1cnn2c(C)c(Cc3ccc(Cl)cc3)c(C)nc12	0.9	1
68	CCN1CCN(c2cc(C)c3cc(NC(=O)Cc4cccc(OC)c4)ccc3n2)CC1	0.18	1
69	CCC1Oc2ccc(C)cc2N(CC(=O)NCc2cccnc2)C1=O (configuration not stated)	-0.13	0.99
70	O=C(CCn1c(=O)[nH]c2ccsc2c1=O)N1CCN(c2cccc(C(F)(F)F)c2)CC1	0.16	1
71	CC(C)(C)c1ccc(OCCCC(=O)Nc2nc(-c3ccccc3)cs2)cc1	1.2	1.1
72	CN1CCN(C(=O)c2n[nH]c(=O)c3ccccc23)CC1	0.83	1.1
73	COc1cc2c(cc1OC)C(c1cccc(OCc3ccccc3)c1)CC(=O)N2 (configuration not stated)	-0.2	0.97
74	COc1cccc(NS(=O)(=O)c2ccc3[nH]c(=O)c(=O)[nH]c3c2)c1	1.1	1
75	CCN(CC)CCNC(=O)c1cnc(Nc2ccccc2OC)c2ccccc12	1.7	1.2
76	COc1ccc(-c2csc3ncnc(N4CCN(c5ccccc5OC)CC4)c23)cc1	-0.6	0.7
77	Cc1ccc2cc(CCNC(=O)C3(c4ccc(Cl)cc4)CCCC3)c(=O)[nH]c2c1	-1.7	0.87
78	Cc1ccc(C23CC4CC(CC(NC(=O)NCCN(C)C)(C4)C2)C3)cc1	0.73	1
79	COc1ccccc1C(=O)Nc1cccc(-c2nc3ncccc3o2)c1C	0.92	1.1
80	Fc1ccc(-c2nc(-c3cccnc3)no2)cc1	0.25	1.1
81	O=C(NCc1cccs1)C1CCCN(S(=O)(=O)c2cccs2)C1 (configuration not stated)	-0.077	1
82	CCOc1ccc(CCNC(=O)Cn2nc(-c3ccccc3)ccc2=O)cc1OCC	2	1
83	COCCn1cc(C(=O)Nc2ccccn2)c2c3ccccc3n(C)c2c1=O	1.5	1.1
84	O=C(CN1C2=NCCN2c2ccccc21)c1ccc(Cl)cc1	1.4	1
85	CCc1cc(-c2[nH]ncc2Oc2ccccc2)c(O)cc1OC	-5.3	0.66
86	CCOC(=O)c1nc(Nc2ccc(OC)cc2)c2ccccc2n1	-0.065	0.95
87	COc1ccccc1CNC(=O)CN1C(=O)COc2ccc(S(=O)(=O)N3CCOCC3)cc21	0.12	1
88	Cc1oc2cc(O)cc(C)c2c(=O)c1-c1cscn1	1.9	1
89	C=CCN1C(=O)N(c2ccc(F)cc2)C(=O)C1CC(=O)Nc1ccc(F)cc1 (configuration not stated)	0.047	1
90	Cc1ccc(Cn2nc(C)c(NC(=O)c3cc(-c4cccs4)on3)c2C)cc1	-2.9	0.79

(cont.)
entry	canonical_smiles	CBX7 inh z-score	CBX7 inh
91	CCOc1ccc(NC(=O)CC2Nc3cc(C)c(C)cc3NC2=O)cc1 (configuration not stated)	-1.3	0.97
92	O=S(=O)(c1ccc(Cl)cc1)c1nc(-c2ccccc2Br)oc1N1CCOCC1	-9	0.74
93	Cc1nc2c(C(=O)NCCCN3CCOCC3)cnn2c(C)c1Cc1cccc(Cl)c1	-0.25	0.98
94	Cc1nc2ccc(S(=O)(=O)NC(C(=O)NCCc3ccccc3)C(C)C)cc2s1 (configuration not stated)	1.8	1.1
95	Cc1ccc(NC(=O)CN(C)S(=O)(=O)c2cnc[nH]2)cc1Cl	0.78	1.1
96	O=C(NCCN1CCOCC1)c1cc2sccc2n1Cc1ccc(F)cc1	-0.16	1
97	COc1cc2c(c(OC)c1)C(c1cccc(C)c1)CC(=O)N2 (configuration not stated)	1	1.2
98	CCCOc1ccc(N2C(=O)CC(N3CCN(C/C=C/c4ccccc4)CC3)C2=O)cc1 (configuration not stated)	0.22	1
99	O=C(NCCc1ccc(Cl)cc1)c1cc2c(s1)CSC2	3.3	1.3
100	CC1CCCC(NC(=O)CSCc2cnn(-c3ccccc3)c2-n2cccc2)C1C (configuration not stated)	1.3	1
101	COc1ccc(-c2cc(C(F)(F)F)nc(-n3nc(C(F)(F)F)cc3C3CC3)n2)cc1	6.8	1.3
102	CCN1CCCC1CNC(=O)CCc1nc(-c2ccccc2F)no1 (configuration not stated)	-2.2	0.86
103	CC(C)C(=O)Nc1ccc2oc(-c3ccncc3)nc2c1	0.017	1
104	COc1ccc(-n2nc(C(=O)N3CCN(c4ccccc4)CC3)c3ccccc3c2=O)cc1	-2	0.93
105	O=C(Cc1ccccc1)Nc1c(C(=O)c2ccccc2)oc2ccccc12	7.4	1.3
106	Cc1cc(C)c(Cc2c(C)nc3c(C(=O)NCCCN4CCOCC4)cnn3c2C)c(C)c1	-1.3	0.95
107	CCc1ccc2oc(-c3cccc(NC(=O)c4ccc(OC)c(Br)c4)c3)nc2c1	3	1.2
108	COc1cccc(CNCCO)c1OCc1ccc(Cl)cc1	-0.11	1
109	CC1CCN(c2nc3ccc(C(=O)NCCC4=CCCCC4)cc3s2)CC1	1.2	1.1
110	Nc1nc2ccccc2n1Cc1cccc2nonc12	0.83	1
111	COc1cc(C)c(C(C)C)cc1S(=O)(=O)N1CCCCCC1	-0.12	0.99
112	CCOc1ccc(-c2nc(C#N)c(N3CC(C)CC(C)C3)o2)cc1 (configuration not stated)	-1.5	0.86
113	CCOc1ccc(-n2ccnc2SCC(=O)Nc2ccc(OC)cc2)cc1	-0.46	0.65
114	COc1ccc(N(CC(=O)NC2CCCCC2)S(=O)(=O)c2cccnc2)cc1	2	1.3

Ordered by formula weight (low to high): part of the list above.
entry	canonical_smiles	CBX7 inh z-score	CBX7 inh
110	Nc1nc2ccccc2n1Cc1cccc2nonc12	0.83	1
97	COc1cc2c(c(OC)c1)C(c1cccc(C)c1)CC(=O)N2 (configuration not stated)	1	1.2
105	O=C(Cc1ccccc1)Nc1c(C(=O)c2ccccc2)oc2ccccc12	7.4	1.3
113	CCOc1ccc(-n2ccnc2SCC(=O)Nc2ccc(OC)cc2)cc1	-0.46	0.65
94	Cc1nc2ccc(S(=O)(=O)NC(C(=O)NCCc3ccccc3)C(C)C)cc2s1 (configuration not stated)	1.8	1.1
104	COc1ccc(-n2nc(C(=O)N3CCN(c4ccccc4)CC3)c3ccccc3c2=O)cc1	-2	0.93
107	CCc1ccc2oc(-c3cccc(NC(=O)c4ccc(OC)c(Br)c4)c3)nc2c1	3	1.2

A portion of the library; rates above refer to the full screens.
